Screening results as filed in PubChem.
GIRK2 act: activators of human GIRK2 potassium channels; P48051; calls only for hits at 25 µM; AID 1259325; HEK293-GIRK2 thallium flux, Thallos fluorescence; actives 0.05% (n = 63,000);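 active = among the strongest 0.2% of first-round signals and kept after retests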;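 note: first round at about 10 µM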
Target sequence (P48051 whole entry, looked up): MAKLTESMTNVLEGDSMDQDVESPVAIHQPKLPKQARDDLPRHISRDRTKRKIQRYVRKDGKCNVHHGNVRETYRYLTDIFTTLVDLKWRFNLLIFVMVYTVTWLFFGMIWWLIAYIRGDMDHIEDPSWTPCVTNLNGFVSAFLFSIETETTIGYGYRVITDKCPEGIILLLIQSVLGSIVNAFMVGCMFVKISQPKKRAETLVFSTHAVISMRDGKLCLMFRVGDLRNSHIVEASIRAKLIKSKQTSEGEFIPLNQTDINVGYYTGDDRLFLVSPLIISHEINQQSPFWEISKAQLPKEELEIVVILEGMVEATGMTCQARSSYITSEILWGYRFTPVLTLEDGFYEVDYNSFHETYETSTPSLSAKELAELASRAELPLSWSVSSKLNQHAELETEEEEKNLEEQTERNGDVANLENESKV
Calls only; i = inactive.

SMILES	GIRK2 act
C#C[C@]1(O)CC[C@H]2[C@@H]3CCC4=CC(=O)CC[C@@H]4[C@H]3CC[C@@]21CC	i
O=C(c1ccccc1)c1ccc2n1CCC2C(=O)O (centres undefined)	i
COc1cc(C)nc(-n2nc(C)cc2OC)n1	i
C#CCCNC(=O)c1ccc(C)c(C)c1	i
Cc1cc(CN2CCN(c3c(Br)cnc4nc(-c5ccc(N6CCN(C)CC6)cc5)[nH]c34)CC2)no1	i
OCCOCCN1CCN(C(c2ccccc2)c2ccc(Cl)cc2)CC1 (centres undefined)	i
COc1cc(-c2noc(Cn3ncn4nc(-c5cc(C)ccc5C)cc4c3=O)n2)cc(OC)c1OC	i
c1ccc2c(Oc3nc(Nc4ccc(N5CCOCC5)cc4)c4ncn(C5CCCCC5)c4n3)cccc2c1	i
CCOc1ccc(-c2noc(Cn3c(=O)n(CC(C)C)c(=O)c4ccccc43)n2)cc1	i
CN(CCOc1ccc(NS(C)(=O)=O)cc1)CCc1ccc(NS(C)(=O)=O)cc1	i
Cc1c(C(=O)N2CCSCC2)cnn1-c1cc(-c2nc(C3CC3)no2)ccn1	i
CC(C)(C(=O)c1cccnc1)c1cccnc1	i
O=C(OC1C[C@@H]2CC3C[C@H](C1)N2CC3=O)c1c[nH]c2ccccc12 (some centres undefined)	i
C#C[C@]1(O)CC[C@H]2[C@@H]3CCC4=CC(=O)CCC4[C@H]3CC[C@@]21CC (some centres undefined)	i
CC(=O)O[C@@]12CO[C@@H]1C[C@H](O)[C@@]1(C)C(=O)[C@H](O)C3=C(C)[C@@H](OC(=O)[C@H](O)[C@@H](NC(=O)OC(C)(C)C)c4ccccc4)C[C@](O)([C@@H](OC(=O)c4ccccc4)[C@H]21)C3(C)C	i

Structures shown so far that contain four or more nitrogen atoms, in the order listed:
SMILES	GIRK2 act
COc1cc(C)nc(-n2nc(C)cc2OC)n1	i
Cc1cc(CN2CCN(c3c(Br)cnc4nc(-c5ccc(N6CCN(C)CC6)cc5)[nH]c34)CC2)no1	i
COc1cc(-c2noc(Cn3ncn4nc(-c5cc(C)ccc5C)cc4c3=O)n2)cc(OC)c1OC	i
c1ccc2c(Oc3nc(Nc4ccc(N5CCOCC5)cc4)c4ncn(C5CCCCC5)c4n3)cccc2c1	i
CCOc1ccc(-c2noc(Cn3c(=O)n(CC(C)C)c(=O)c4ccccc43)n2)cc1	i
Cc1c(C(=O)N2CCSCC2)cnn1-c1cc(-c2nc(C3CC3)no2)ccn1	i

In a second layout: results already given
mol | GIRK2 act
OCCOCCN1CCN(C(c2ccccc2)c2ccc(Cl)cc2)CC1 (centres undefined) | i
COc1cc(-c2noc(Cn3ncn4nc(-c5cc(C)ccc5C)cc4c3=O)n2)cc(OC)c1OC | i
c1ccc2c(Oc3nc(Nc4ccc(N5CCOCC5)cc4)c4ncn(C5CCCCC5)c4n3)cccc2c1 | i

Next records follow.
SMILES	GIRK2 act
COc1ccc(C(=O)NCC23CC4CC(CC(C4)C2)C3)cc1	i
CSc1cccc(NC(=O)Cn2cccc(-c3nc(-c4ccc(Br)cc4)no3)c2=O)c1	i
COc1ccc(-n2nnc(-c3nc(-c4cc(OC)ccc4OC)cs3)c2N)cc1	i
O=C(O)CCC/C=C\CC1C(O)CC(=O)[C@@H]1/C=C/C(O)CCc1ccccc1 (some centres undefined)	i
C[C@@H]1C[C@H]2[C@@H]3C[C@H](F)C4=CC(=O)C(Cl)=C[C@]4(C)[C@@]3(F)[C@@H](O)C[C@]2(C)[C@@]1(O)C(=O)CO	i
Cc1cc(=O)n(CC(=O)Nc2cc(F)cc(F)c2)c(N2CCCCC2)n1	i
O=c1[nH]c(-c2ccc(C(F)(F)F)cc2)nc2c1CSCC2	i
CN(C)CCC[C@@]1(c2ccc(F)cc2)OCc2cc(C#N)ccc21	i
Cc1ccc(Nc2c(F)cccc2Cl)c(CC(=O)O)c1	i
CO[C@@H](C(=O)N1Cc2[nH]nc(NC(=O)c3ccc(N4CCN(C)CC4)cc3)c2C1)c1ccccc1	i
O=C(NCCN1CCOCC1)c1ccc(Cl)cc1	i
NC(=O)c1ccc(-c2nc(-c3ccc4c(c3)OCO4)c(-c3ccccn3)[nH]2)cc1	i
CCN1CC(CCN2CCOCC2)C(c2ccccc2)(c2ccccc2)C1=O (centres undefined)	i
CN1CCN(c2c(F)cc3c(=O)c(C(=O)O)cn4c3c2SCC4)CC1	i
CN1CCC(=C2c3ccccc3CC(=O)c3sccc32)CC1	i

Some of the compounds tested, so the mix of outcomes need not match the whole.
